KCNQ2 block = KCNQ2 potassium channel inhibitors, primary screen, cell-based, CHO-K1, FluxOR thallium flux, B-score (AID 2156); B-score at 10 µM; 20 min; hits give low values; only compounds with negative scores are shown here; some inactives read as strong as hits; 310,000 compounds, 1.1% hits; O88943;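 active = fluorescence ratio B-score at most minus 3 library SDs, with starting brightness B-score within 2 library SDs, cut at about -5.5 in these data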
Target sequence (O88943 whole entry, looked up): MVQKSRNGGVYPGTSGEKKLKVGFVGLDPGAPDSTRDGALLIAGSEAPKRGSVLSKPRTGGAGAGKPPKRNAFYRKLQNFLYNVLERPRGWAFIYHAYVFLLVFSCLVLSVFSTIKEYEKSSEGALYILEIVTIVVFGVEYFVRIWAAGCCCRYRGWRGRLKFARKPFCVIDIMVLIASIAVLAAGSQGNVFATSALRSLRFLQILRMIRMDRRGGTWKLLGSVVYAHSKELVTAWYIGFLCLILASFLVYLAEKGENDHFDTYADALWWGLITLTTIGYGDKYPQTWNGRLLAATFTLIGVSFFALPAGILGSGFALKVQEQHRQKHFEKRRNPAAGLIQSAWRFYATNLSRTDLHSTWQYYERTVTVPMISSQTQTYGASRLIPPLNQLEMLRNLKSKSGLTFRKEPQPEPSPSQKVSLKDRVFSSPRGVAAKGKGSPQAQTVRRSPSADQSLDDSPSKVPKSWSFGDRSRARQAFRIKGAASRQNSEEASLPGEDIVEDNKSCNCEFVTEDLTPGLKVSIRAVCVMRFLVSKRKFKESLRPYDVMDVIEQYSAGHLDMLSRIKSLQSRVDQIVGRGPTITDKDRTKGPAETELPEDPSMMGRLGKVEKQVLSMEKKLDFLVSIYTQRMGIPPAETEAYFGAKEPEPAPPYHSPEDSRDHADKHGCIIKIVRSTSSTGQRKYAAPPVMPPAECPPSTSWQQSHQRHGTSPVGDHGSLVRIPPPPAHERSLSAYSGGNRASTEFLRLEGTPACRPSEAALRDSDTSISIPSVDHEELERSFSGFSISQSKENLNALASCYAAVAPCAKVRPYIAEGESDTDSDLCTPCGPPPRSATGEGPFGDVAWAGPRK
KCNQ2 block baseline = also measured in KCNQ2 block; calls as there; B-score; measured here: initial fluorescence intensity artifact check;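 brightness before thallium and not channel activity; 0 = typical well and far values either way flag optical interference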
An asterisk follows results filed as active; i = inactive. These rows are one share of the data (hit frequency here may not be typical).

#	SMILES	KCNQ2 block baseline	KCNQ2 block
1	COc1cc(/C=N/NC(=O)c2cc(-c3cccn3C)n[nH]2)cc(OC)c1OC	-1.97	i
2	O=c1c2[nH]c3ccc(Cl)cc3c2ncn1CCN1CCCCC1	0.7	i
3	Fc1ccccc1N1CCN(c2nc3ccccc3n3nnnc23)CC1	2.73	i
4	COc1cccc(C2c3c(oc4ccc(F)cc4c3=O)C(=O)N2CCN2CCOCC2)c1OC (configuration not stated)	-1.2	i
5	CCOC(=O)/C(=N\Nc1ccccc1Cl)N1CCN(Cc2ccccc2)CC1	-1.6	i
6	O=C1NC(Cc2ccccc2)C(=O)N1Cc1cc([N+](=O)[O-])cc2c1OCOC2 (configuration not stated)	0.42	i
7	COc1ccc(Nc2nnc(SCC(=O)Nc3ccc4[nH]c(=O)[nH]c4c3)s2)cc1	0.63	i
8	Cc1nn(S(=O)(=O)c2ccc([N+](=O)[O-])cc2)c(C)c1Sc1ccccc1	-1.2	i
9	Cc1cccc(NC(=O)CSc2nnc(CNC(=O)c3cccs3)o2)c1C	-0.06	i
10	Cc1cccc(NS(=O)(=O)c2cccc3nonc23)c1	-0.24	i
11	Cc1ccc(S(=O)(=O)NNC(=O)c2csnn2)cc1	0.27	i
12	COc1ccccc1NC(=O)COc1ccc2c(c1)OCO2	0.02	i
13	COc1ccc(C2=C(C#N)C(=O)OC2)cc1	-0.13	i
14	CCCCC(NC(=O)c1cccc(Br)c1)C(=O)O (configuration not stated)	1.25	i
15	CCOC(=O)N1CCC(N2CCN(S(=O)(=O)c3ccc([N+](=O)[O-])cc3)CC2)CC1	0.85	i
16	CCC1Oc2ccccc2N(CC(=O)NC2CCCCC2)C1=O (configuration not stated)	-2.03	i
17	N#Cc1nc(COc2ccc(F)cc2)oc1N1CCCC1	-1.09	i
18	Cc1ccc(N(C(=O)CCC(=O)Nc2cc(C)on2)C(C(=O)NC2CCCC2)c2ccncc2)cc1 (configuration not stated)	-0.8	i
19	CCOc1ccc(/C=N/NC(=S)NC2CC3CC2C2C=CCC32)cc1 (configuration not stated)	-0.35	i
20	COc1ccc(N=C2SCC(c3ccc([N+](=O)[O-])cc3)=NN2CCO)cc1	1.22	i
21	O=C(/C=C/c1ccccc1)c1ccccn1	0.14	i
22	O=C(CSc1ccc(F)cc1)Nc1ccccc1N1CCOCC1	-1.51	i
23	NC(=O)CSc1nnc(Cc2csc(Nc3ccccc3)n2)n1Cc1ccccc1	-0.24	i
24	COCCN1CSC(=S)N(Cc2ccco2)C1	-0.49	i
25	CN(c1ccccc1)S(=O)(=O)c1cccc(NC(=O)c2cc3ccccc3oc2=O)c1	-0.94	i
26	Cc1cccc(-c2nc(CS(=O)CC(=O)NCCc3ccc(Cl)cc3)c(C)o2)c1 (configuration not stated)	0.07	i
27	CC(=O)NC(Cc1ccccc1C)C(=O)NC1CCN(c2nnnn2-c2ccccc2)CC1 (configuration not stated)	0.94	i
28	COc1ccc(C(=O)OCCN2CCOCC2)cc1	1.36	i
29	O=C(c1ccc(Br)cc1)N(Cc1nc2ccccc2c(=O)[nH]1)C1CCCC1	-0.04	i
30	COc1ccc(/C(C)=N/NC(=O)c2nnn(-c3nonc3N)c2-c2cccs2)cc1OC	-0.28	i
31	CC(=O)Nc1sc2c(c1C(c1ccncc1)N1CCOCC1)CCCC2 (configuration not stated)	-1.44	i
32	Cc1ccccc1SCC(=O)Nc1cc(C(F)(F)F)ccc1N1CCOCC1	-0.17*	-9.54*
33	CCn1c(=O)cc(SCC(=O)NCCN2CCN(Cc3ccccc3)CC2)c2ccccc21	0.36	i
34	O=C1CS/C(=N/N=C/c2c[nH]c3ccccc23)N1	-1.34	i
35	Cc1ccc(NC(=S)NCCc2c[nH]c3ccccc23)c(C)c1	-0.09	i
36	CCC(=O)N1CCN(c2ccc(NC(=O)c3ccc([N+](=O)[O-])o3)cc2)CC1	-0.95	i
37	O=C(c1ccc2c(c1)OCO2)N1CCC2(CC1)Oc1ccc(Cl)cc1C(=O)C21CC(c2ccc(Cl)cc2)=NO1 (configuration not stated)	0.21	i
38	O=C(NCc1nc2ccccc2[nH]1)C1=C[C@@H](c2csc3ccccc23)C[C@@H](OCc2ccc(CO)cc2)O1	-0.09	i
39	CCCCN(C)CC(O)Cn1cc(/C=C/C(=O)c2ccc(OCC)cc2)c2ccccc21 (configuration not stated)	1.05*	-6.74*
40	CCOC(=O)c1ccc(NC(=S)N2CCSC2c2c(F)cc(F)cc2F)cc1 (configuration not stated)	-0.06	i
41	Cc1sc2ncnc(-n3nnc4ccccc43)c2c1C	0.64	i
42	COc1cc(C(=O)NCc2ccco2)c(Br)c(OC)c1OC	0.01	i
43	CC(=O)Nc1ccc(N2C(=O)c3cccc(NC(C)=O)c3C2=O)cc1	1.93	i
44	CS(=O)(=O)N(CC(=O)N1CCN(Cc2ccccc2)CC1)c1ccc(F)cc1	0.78	i
45	O=C(c1ccc(C(F)(F)F)cc1)C1CCCN(C(=O)c2csnn2)C1 (configuration not stated)	-0.67	i
46	COc1ccccc1NC(=O)CSc1nnc(C2CCCCC2)n1C	1.22	i
47	CCCC(C(=O)NC1CCCCC1)N(Cc1ccco1)C(=O)CNS(=O)(=O)c1ccccc1 (configuration not stated)	-1.35	i
48	COc1ccc(N=C2NC(=O)S/C2=C\c2ccc(N(C)C)cc2)cc1	6.49	i
49	COc1ccc(-c2[nH]ncc2CN2CCN(Cc3cccs3)CC2)cc1F	0.7	i
50	Cc1cccc(-c2nc3ccccc3c(=O)n2NC(=O)c2cccs2)c1	-0.51	i
51	Cc1ccc(CN2CCN(/N=C/c3ccc(C(F)(F)F)cc3)CC2)cc1	0.86	i
52	COc1cc2c(cc1NC(=O)COC(=O)C1CC(=O)N(Cc3ccco3)C1)oc1ccccc12 (configuration not stated)	1.46	i
53	Cc1ccc2cc(CN(C(=O)c3ccco3)c3ccccc3C)c(=O)[nH]c2c1	0.16	i
54	CCOC(=O)N1CCc2c(sc(NC(=O)C3COc4ccccc4O3)c2C(N)=O)C1 (configuration not stated)	-1.28	i
55	CCCCCCc1nc(C(N)=O)c2[nH]c(=O)n(-c3ccc(OC)cc3OC)c2n1	0.74	i
56	CC(=O)C1C(=O)c2c(cccc2[N+](=O)[O-])C1=Nc1cccc(Cl)c1 (configuration not stated)	-0.01	i

The list continues.
#	SMILES	KCNQ2 block baseline	KCNQ2 block
57	Cc1cc(Nc2cccc(O)c2)c2ccccc2n1	0.08	i
58	CC(C)(C)n1nc2c(c1NC(=O)c1ccccc1)CS(=O)(=O)C2	1.2	i
59	COc1ccc(-n2c(SCCNCCO)nc3sc4c(c3c2=O)CCCC4)cc1	0.18	i
60	CCOc1ccccc1N(CC(=O)Nc1ccccc1F)S(=O)(=O)c1ccccc1	0.4	i
61	Cc1cccc(NC(=O)C(Cc2ccccc2)n2cccc2)c1 (configuration not stated)	0.37*	-5.73*
62	COc1ccccc1C(=O)COC(=O)c1nc2nc(C)cc(C)n2n1	-0.35	i
63	COC(=O)[C@@H]1C[C@@]2(O)[C@H](O)[C@H](O)[C@H](O)C[C@H]2N1Cc1cc(OC)cc(OC)c1	0.75	i
64	Cc1ccc(S(=O)(=O)CCC(=O)OCC(=O)NCc2ccccc2)cc1	0.54	i
65	OCCC1CN(Cc2cnc(N3CCCC3)s2)CCN1C1CCCC1 (configuration not stated)	1.46	i
66	c1ccc(CNc2nc3ccccc3n2CCN2CCOCC2)nc1	-1.12	i
67	COc1cccc(CN2CC(C(=O)N(C)Cc3ccnc4ccccc34)CCC2=O)c1 (configuration not stated)	1.73	i
68	Cc1ccc(C)c(N2CC(C(=O)Nc3cc(C)on3)CC2=O)c1 (configuration not stated)	1.24	i
69	O=C(CNC(=O)C1CCCCC1)Nc1ccc(F)c(Cl)c1	-1.48	i
70	O=C(NCCS(=O)(=O)N1CCN(Cc2ccccc2)CC1)c1ccccc1	0.05	i
71	COC(=O)N/N=C/c1cccc([N+](=O)[O-])c1	-1.54	i
72	N#C/C(=C\C1CC2C=CC1C2)c1nc2ccccc2[nH]1 (configuration not stated)	-0.16	i

Reprinted at random: three compounds from above
#	SMILES	KCNQ2 block baseline	KCNQ2 block
17	N#Cc1nc(COc2ccc(F)cc2)oc1N1CCCC1	-1.09	i
49	COc1ccc(-c2[nH]ncc2CN2CCN(Cc3cccs3)CC2)cc1F	0.7	i
15	CCOC(=O)N1CCC(N2CCN(S(=O)(=O)c3ccc([N+](=O)[O-])cc3)CC2)CC1	0.85	i

Down the list, quoted from above:
KCNQ2 block baseline for nos. 65 to 71 → 1.46, -1.12, 1.73, 1.24, -1.48, 0.05, -1.54
KCNQ2 block for nos. 65 to 71 → i, i, i, i, i, i, i

(next part)
#	SMILES	KCNQ2 block baseline	KCNQ2 block
73	Cc1ccccc1-n1c(=O)c(C#N)cc2c(=O)n3ccccc3nc21	0.53	i
74	O=C(Nc1nccs1)c1cc(-c2ccncc2)nc2ccccc12	0.91	i
75	Cc1cccc(-n2cnc3sc(C)c(C)c3c2=O)c1	-2.08	i
76	COC(=O)[C@H](C)NC(=O)Nc1ccccc1C(F)(F)F	-1.55	i
77	Cc1noc(NS(=O)(=O)c2ccc(N/C=C\C(=O)c3cccc4ccccc34)cc2)c1C	-3.3	i
78	O=C(NNc1ccccc1Cl)C(O)(c1cccc(C(F)(F)F)c1)c1cccc(C(F)(F)F)c1	0.43	i
79	Cc1noc(C)c1S(=O)(=O)N(CC(=O)NCc1ccc2c(c1)OCO2)c1ccc(C(C)C)cc1	-0.29	i
80	CC1=NN(C(=O)Cc2ccccc2)C(O)(c2ccccc2)C1 (configuration not stated)	1.3	i

Molecules listed so far that contain a nitro group on carbon, in the order listed:
#	SMILES	KCNQ2 block baseline	KCNQ2 block
6	O=C1NC(Cc2ccccc2)C(=O)N1Cc1cc([N+](=O)[O-])cc2c1OCOC2 (configuration not stated)	0.42	i
8	Cc1nn(S(=O)(=O)c2ccc([N+](=O)[O-])cc2)c(C)c1Sc1ccccc1	-1.2	i
15	CCOC(=O)N1CCC(N2CCN(S(=O)(=O)c3ccc([N+](=O)[O-])cc3)CC2)CC1	0.85	i
20	COc1ccc(N=C2SCC(c3ccc([N+](=O)[O-])cc3)=NN2CCO)cc1	1.22	i
36	CCC(=O)N1CCN(c2ccc(NC(=O)c3ccc([N+](=O)[O-])o3)cc2)CC1	-0.95	i
56	CC(=O)C1C(=O)c2c(cccc2[N+](=O)[O-])C1=Nc1cccc(Cl)c1 (configuration not stated)	-0.01	i
71	COC(=O)N/N=C/c1cccc([N+](=O)[O-])c1	-1.54	i

(list continues)
#	SMILES	KCNQ2 block baseline	KCNQ2 block
81	COc1ccc(N(CC(=O)Nc2ccc(F)c(Cl)c2)S(=O)(=O)c2c(C)noc2C)cc1	-1.11	i
82	CCN=C(NCC)SC1CC(=O)N(c2cccc(OCC)c2)C1=O (configuration not stated)	-0.09*	-6.25*
83	CC(C)(C)C(=O)Nc1ccc(NC(=O)c2ccco2)nc1	0.65	i
84	C=CCNC(=S)NNC(=O)C(CCC(C)C)CC(C)O (configuration not stated)	1.91	i
85	Cn1ccs/c1=N\S(=O)(=O)c1ccc(Br)cc1	-0.33	i
86	Cc1ccc(NC(=O)CSc2nnc(-c3ccncc3)n2C)cc1S(=O)(=O)N1CCOCC1	1.27	i
87	CC(=O)c1ccc(OCCOc2ccc([N+](=O)[O-])cc2)cc1	-0.27	i
88	Cc1ccc(C(C#N)c2ccc(Cl)nn2)cc1 (configuration not stated)	-0.81	i
89	Cc1ccc(N2CC(C(=O)OCC(=O)C(C)(C)C)CC2=O)cc1C (configuration not stated)	-0.89	i
90	CCCCCCN1C=CC(=C/C=C(\C#N)C(=O)OCC)C=C1	11	i
91	NC(=O)Cn1c2[n+](c3ccccc31)CC(O)CS2 (configuration not stated)	-2.22	i
92	CSc1nc(N2CCOCC2)c2c(c1C#N)CC(C(C)C)OC2 (configuration not stated)	-0.12	i
93	c1ccc(-c2ccccc2OCCN2CCCC2)cc1	-1.14	i
94	CCOC(=O)/C(C#N)=C1/SC(C)C(=O)N1c1ccc(Br)cc1 (configuration not stated)	0.65	i
95	CC(C)c1ccc(NC(=O)CCN2C(=O)c3ccc([N+](=O)[O-])cc3C2=O)cc1	-0.04	i
96	COCc1nnc(NC(=O)C2CC(=O)N(C3CCCC3)C2)s1 (configuration not stated)	-0.06	i
97	COc1ccnc2c1c(=O)n(Cc1ccccc1Cl)c(=O)n2C	0.98	i
98	Cc1ccc(S(=O)(=O)N(Cc2ccc([N+](=O)[O-])cc2)C(=O)N2CCN(C)CC2)cc1	1.29	i
99	Cc1cc(C(F)(F)F)nn1CCCNC(=O)c1cnccn1	-1.85	i
100	CCOC(=O)Cc1c(C)nc(-c2ccccc2)[nH]c1=O	1.53	i
101	C#Cc1ccc([C@@H]2C=C(C(=O)O)O[C@H](OCc3ccc(CO)cc3)C2)cc1	-0.11	i
102	O=C(C[n+]1cccc(NC(=O)c2ccccc2)c1)c1cccc([N+](=O)[O-])c1	0.21	i
103	N#C/C(C(=O)N1CCOCC1)=c1/s/c(=C\c2ccccn2)c(=O)n1-c1ccccc1	0.46	i
104	CC(C)(C)c1ccc(N2C(=O)CC(c3ccccc3)C2=O)cc1 (configuration not stated)	-2.23	i
105	CC1(c2nnc(-c3ccncc3)o2)CC(c2ccc(F)cc2)=NO1 (configuration not stated)	-0.56	i
106	CCc1nc2ccccc2c(C(=O)NCc2ccc(OC)cc2)c1C	-2.24	i
107	O=C(Nc1cccc2cccnc12)c1cccc(N2C(=O)CCC2=O)c1	-0.92	i
108	CN1CCc2nc(SCc3ccc(Cl)cc3)c(C#N)c(-c3cccs3)c2C1	0.03	i
109	C/C(=N\NC(=O)c1ccccn1)C12CC3CC(CC(C3)C1)C2	-2.73	i
110	CC(C)C(C(=O)NCC1CCCO1)N(C(=O)CNS(=O)(=O)c1ccc(F)cc1)C1CCCCC1 (configuration not stated)	-0.16	i
111	COc1ccc(C(=O)NC(=S)Nc2cccc(Cl)c2N2CCOCC2)cc1[N+](=O)[O-]	-0.97	i
